# NOMO-1 viab: NOMO-1 AML cell viability reduction, primary screen, STK33 inhibitor project, CellTiter-Glo luminescence. NOMO-1 AML viability, 72 h. inhibition, % (test concentration not listed). 7.5% of 37,000 active. AID 2330, 2010;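 active means most replicates above 80%; inconclusive means exactly half above 80%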;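 further: wells of about 30 µL received 25 nL stock; 0% = median of vehicle wells and 100% = reference inhibitor level; the first replicate is given; inactives centre near 10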
# * hit, by the source's call; ? = inconclusive.
SMILES,NOMO-1 viab
C[C@H](CO)N1C[C@H](C)[C@H](CN(C)C(=O)Nc2cccc3ccccc23)Oc2ccc(NC(=O)Nc3cccc4ccccc34)cc2C1=O,32
C[C@@H]1CN([C@@H](C)CO)C(=O)c2cccc(NS(C)(=O)=O)c2O[C@H]1CN(C)S(=O)(=O)c1cn(C)cn1,-5
O=C(CN1C(=O)C2C3CCC(C3)C2C1=O)Nc1cccc(C(=O)O)c1 (configuration not stated),0
COc1ccc(NC(=O)N(C)C[C@@H]2Oc3ccc(NC(=O)CCCN(C)C)cc3C(=O)N([C@@H](C)CO)C[C@H]2C)cc1,10
COc1ccc(C)cc1N(CC(=O)Nc1c(C)cc(C)cc1C)S(C)(=O)=O,28
C[C@H]1CN([C@@H](C)CO)C(=O)c2cc(NS(=O)(=O)c3ccccc3)ccc2O[C@@H]1CN(C)C(=O)Nc1ccccc1,29
C[C@@H]1CCCCO[C@@H](CN(C)S(=O)(=O)c2ccccc2)[C@@H](C)CN([C@H](C)CO)C(=O)c2cc(N(C)C)ccc2O1,48
C[C@@H]1CN([C@@H](C)CO)C(=O)c2cccc(NS(=O)(=O)c3cn(C)cn3)c2O[C@H]1CN(C)C(=O)Nc1ccc2c(c1)OCO2,8
CC1(C)CC(=O)c2cc(C(=O)NCCCN3CCOCC3)c(=O)n(-c3ccccc3)c2C1,1
Cc1noc(C)c1S(=O)(=O)N(C)C[C@@H]1Oc2ccc(NC(=O)Cc3ccccc3)cc2CC(=O)N([C@@H](C)CO)C[C@@H]1C,-3
C[C@H]1CN([C@@H](C)CO)C(=O)Cc2cc(NC(=O)Cc3ccccc3)ccc2O[C@@H]1CN(C)C(=O)Nc1cccc2ccccc12,5
O=C(O)COc1ccc(NC(=O)c2cccc(I)c2)cc1,-16
COc1cc(/C=N\n2cn[nH]c2=S)cc(OC)c1OC,-5
COc1ccc(NC(=O)N(C)C[C@H]2Oc3c(NS(=O)(=O)c4ccc(F)cc4)cccc3C(=O)N([C@@H](C)CO)C[C@@H]2C)cc1,1
CC(Oc1ccc(Br)cc1)C(=O)Nc1ncn[nH]1 (configuration not stated),3
Cc1ccc(S(=O)(=O)N(C)C[C@@H]2Oc3c(NC(=O)Nc4c(C)noc4C)cccc3C(=O)N([C@H](C)CO)C[C@@H]2C)cc1,9
CC(=O)Nc1nonc1-c1nc2ccccc2n1Cc1ccc(Cl)cc1Cl,?
CCn1c(SCc2nc3ccccc3c(=O)[nH]2)nnc1-c1ccccc1Br,3
Cc1cc(C(=O)Nc2cccc3c2O[C@H](CN(C)S(=O)(=O)c2ccc(Cl)cc2)[C@H](C)CN([C@H](C)CO)C3=O)n(C)n1,23
O=C(CN1CCOCC1)Nc1sc2c(c1C(=O)Nc1ccc(Br)cc1)CCC2,30
COc1ccc(-c2ccc(C#N)c(SCC(=O)Nc3cc(OC)c(OC)c(OC)c3)n2)cc1,-12
COc1ccc(S(=O)(=O)Nc2cccc3c2O[C@H](CN(C)CC2CCCCC2)[C@H](C)CN([C@@H](C)CO)C3=O)cc1,23
C[C@H](CO)N1C[C@H](C)[C@H](CN(C)C(=O)Nc2cccc3ccccc23)Oc2ccc(NC(=O)Nc3ccc(C(F)(F)F)cc3)cc2C1=O,114*
C[C@@H]1CCCCO[C@@H](CN(C)C(=O)c2ccccc2)[C@@H](C)CN([C@H](C)CO)C(=O)c2cc(NC(=O)Nc3ccccc3)ccc2O1,-11
COc1ccc(NC(=O)N(C)C[C@@H]2Oc3c(NC(=O)Nc4ccc5c(c4)OCO5)cccc3C(=O)N([C@H](C)CO)C[C@@H]2C)cc1,6
Cc1ccc(-c2nnc(N3CCN(C(=O)CSc4nc(C)cc(C)n4)CC3)c3ccccc23)cc1,37
COc1ccc(NC(=O)N(C)C[C@@H]2Oc3ccc(NC(=O)C4CC4)cc3CC(=O)N([C@H](C)CO)C[C@H]2C)cc1,7
CC(C)NC(=O)Nc1cccc2c1O[C@H](CN(C)C)[C@H](C)CN([C@@H](C)CO)C2=O,-10
C[C@@H]1CN([C@H](C)CO)C(=O)Cc2cc(NS(=O)(=O)c3ccc(Cl)cc3)ccc2O[C@H]1CN(C)C(=O)Nc1ccc(C(F)(F)F)cc1,16
CCc1nc2oc(C(=O)c3ccccc3)c(N)c2c2c1COC(C)(C)C2,16
CC(C)NC(=O)N(C)C[C@H]1Oc2ccc(NC(=O)CCCCCC(=O)Nc3ccccc3N)cc2C(=O)N([C@H](C)CO)C[C@@H]1C,4
C[C@H]1CN([C@@H](C)CO)C(=O)c2cccc(NS(=O)(=O)c3ccccc3)c2O[C@H]1CN(C)S(=O)(=O)c1ccc(F)cc1,4
COc1ccc(S(=O)(=O)Nc2ccc3c(c2)CC(=O)N([C@@H](C)CO)C[C@@H](C)[C@@H](CN(C)C(=O)Nc2ccccc2)O3)cc1,9
COc1ccc(S(=O)(=O)N2CCC(C(=O)Nc3ccc(NC(C)=O)cc3)CC2)cc1OC,21
O=C1c2ccccc2S(=O)(=O)N1CC(O)Cn1ccc2ccccc21 (configuration not stated),21
CCc1ccc(OCC(=O)Nc2ccc3oc(-c4ccccc4)nc3c2)cc1,14
Cc1ccc(S(=O)(=O)N(C)C[C@H]2Oc3ccc(NS(=O)(=O)c4cccs4)cc3C(=O)N([C@@H](C)CO)C[C@H]2C)cc1,29
C[C@@H]1CN([C@@H](C)CO)C(=O)c2cccc(NS(C)(=O)=O)c2O[C@H]1CN(C)C(=O)NC1CCCCC1,19
Cc1ccc(S(=O)(=O)N(C)C[C@@H]2Oc3ccc(NC(=O)Cc4ccccc4)cc3C(=O)N([C@H](C)CO)C[C@@H]2C)cc1,8
C[C@@H]1CN([C@H](C)CO)C(=O)Cc2cc(NC(=O)Nc3ccccc3)ccc2O[C@H]1CN(C)Cc1ccc(-c2ccccc2)cc1,4
Cc1ccc(S(=O)(=O)Nc2ccc3c(c2)C(=O)N([C@@H](C)CO)C[C@@H](C)[C@H](CN(C)C(=O)Nc2c(C)noc2C)O3)cc1,8
CC(C)NC(=O)N(C)C[C@@H]1Oc2c(NC(=O)Nc3ccccc3)cccc2C(=O)N([C@@H](C)CO)C[C@H]1C,13
O=C1NC(c2ccc(Br)cc2)Oc2ccccc21 (configuration not stated),25
C[C@@H]1CN([C@@H](C)CO)C(=O)c2cccc(NC(=O)C3CCOCC3)c2O[C@@H]1CN(C)Cc1ccc2c(c1)OCO2,-17
C[C@@H]1CCCCO[C@H](CN(C)C(=O)c2ccccc2)[C@@H](C)CN([C@H](C)CO)C(=O)c2cc(NC(=O)Nc3cccc4ccccc34)ccc2O1,35
C[C@H]1CN([C@@H](C)CO)C(=O)Cc2cc(NC(=O)Nc3ccc(C(F)(F)F)cc3)ccc2O[C@H]1CN(C)Cc1ccc(Oc2ccccc2)cc1,26
C[C@H]1CN([C@@H](C)CO)C(=O)c2cccc(N(C)C)c2O[C@H]1CN(C)C(=O)Nc1ccc2c(c1)OCO2,33
C[C@H]1CN([C@@H](C)CO)C(=O)c2cc(NC(=O)Nc3ccc(F)cc3)ccc2O[C@H]1CN(C)C(=O)NC1CCCCC1,25
Cc1ccc(S(=O)(=O)Nc2cccc3c2O[C@@H](CN(C)C)[C@H](C)CN([C@H](C)CO)C3=O)cc1,6
Cc1ccc(S(=O)(=O)Nc2ccc3c(c2)CC(=O)N([C@@H](C)CO)C[C@@H](C)[C@@H](CN(C)C(=O)Nc2ccc(F)cc2)O3)cc1,40
C[C@@H]1CN([C@H](C)CO)C(=O)Cc2cc(NC(=O)Nc3ccc(C(F)(F)F)cc3)ccc2O[C@H]1CN(C)S(=O)(=O)c1cn(C)cn1,15
O=C1NC(=S)N/C1=C\c1ccco1,35
Cc1nnc(SCC(=O)Nc2nsc(-c3ccc(Cl)cc3)n2)s1,0
C[C@@H]1CN([C@@H](C)CO)C(=O)Cc2cc(NS(=O)(=O)c3ccc(Cl)cc3)ccc2O[C@@H]1CN(C)Cc1ccc(-c2ccccc2)cc1,22
CC(C)NC(=O)N(C)C[C@H]1Oc2c(NC(=O)c3ccncc3)cccc2C(=O)N([C@H](C)CO)C[C@H]1C,13
C=C1CCC2[C@](C)(CCC[C@]2(C)C(=O)O)[C@H]1CC/C(C)=C/C(=O)OC (some centres not stated),20
Cc1ccc(S(=O)(=O)N(C)C[C@@H]2Oc3c(NC(=O)Nc4ccc(C(F)(F)F)cc4)cccc3C(=O)N([C@H](C)CO)C[C@H]2C)cc1,?
O=S(=O)(CCN(Cc1cccs1)C(=S)Nc1cccc(F)c1)c1ccc(Cl)cc1,1
COC(=O)Cc1cc(=O)n(-c2ccccc2)[nH]1,-20
N#Cc1c(NC(=O)c2cc3nc(-c4ccco4)cc(C(F)(F)F)n3n2)sc2c1CCCCC2,35

# Given field by field: entries from further up.
mol: O=C1NC(c2ccc(Br)cc2)Oc2ccccc21 (configuration not stated)
  NOMO-1 viab = 25
mol: C[C@@H]1CN([C@@H](C)CO)C(=O)c2cccc(NC(=O)C3CCOCC3)c2O[C@@H]1CN(C)Cc1ccc2c(c1)OCO2
  NOMO-1 viab = -17
mol: C[C@@H]1CCCCO[C@H](CN(C)C(=O)c2ccccc2)[C@@H](C)CN([C@H](C)CO)C(=O)c2cc(NC(=O)Nc3cccc4ccccc34)ccc2O1
  NOMO-1 viab = 35
mol: C[C@H]1CN([C@@H](C)CO)C(=O)Cc2cc(NC(=O)Nc3ccc(C(F)(F)F)cc3)ccc2O[C@H]1CN(C)Cc1ccc(Oc2ccccc2)cc1
  NOMO-1 viab = 26

# More entries
SMILES,NOMO-1 viab
COc1ccc(S(=O)(=O)N(C)C[C@@H]2Oc3ccc(NC(=O)CCCCCC(=O)Nc4ccccc4N)cc3C(=O)N([C@H](C)CO)C[C@H]2C)cc1,12
C[C@@H]1CN([C@H](C)CO)C(=O)c2cc(NC(=O)CCN3CCOCC3)ccc2O[C@@H]1CN(C)C,-6
COC(=O)c1c(-c2ccccc2)csc1NC(=O)CSc1ncnc2sc(C)c(C)c12,33
Cc1ccccc1-c1nc(S(=O)(=O)c2ccc(Cl)cc2)c(NCc2cccnc2)o1,-1
Cc1sc2ncn(CC(=O)Nc3cccc(Cl)c3C)c(=O)c2c1-c1ccccc1,39
O=C1CCC(=O)N1CN(C(=O)C(F)(F)F)c1ccccc1,0
C[C@@H]1CN([C@H](C)CO)C(=O)c2cc(NC(=O)CCC(F)(F)F)ccc2O[C@H]1CN(C)C(=O)Nc1ccc(F)cc1,6
C[C@@H]1CN([C@@H](C)CO)C(=O)c2cccc(NS(=O)(=O)c3cn(C)cn3)c2O[C@H]1CN(C)CC1CC1,2
C[C@@H]1CN([C@@H](C)CO)C(=O)c2cccc(NS(=O)(=O)c3cccs3)c2O[C@@H]1CN(C)S(=O)(=O)c1cccs1,47
COc1ccc(NC(=O)N(C)C[C@@H]2Oc3ccc(NC(=O)C4CC4)cc3C(=O)N([C@H](C)CO)C[C@H]2C)cc1,10
CCOc1ccc(C(=O)Nc2ccc(NC(=O)c3ccccc3)c(C)c2)cc1Br,58
C[C@H]1CN([C@@H](C)CO)C(=O)c2cc(NC(=O)C3CCCCC3)ccc2O[C@@H]1CN(C)S(=O)(=O)c1ccc(F)cc1,-2
C[C@@H]1CN([C@@H](C)CO)C(=O)c2cccc(NS(=O)(=O)c3ccc(Cl)cc3)c2O[C@H]1CN(C)CC1CC1,11
Cc1noc(C)c1S(=O)(=O)Nc1ccc2c(c1)C(=O)N([C@@H](C)CO)C[C@@H](C)[C@H](CN(C)Cc1ccc3c(c1)OCO3)O2,-2
O=C(CSc1nc2ccccc2c(=O)n1-c1ccccc1)NCC1CCCO1 (configuration not stated),6
COc1ccc(NC(=O)N(C)C[C@H]2Oc3ccc(NC(=O)Nc4cccc5ccccc45)cc3C(=O)N([C@@H](C)CO)C[C@H]2C)cc1,-3
C[C@H](CO)N1C[C@H](C)[C@H](CN(C)S(=O)(=O)c2ccccc2)Oc2ccc(NC(=O)C3CCCCC3)cc2C1=O,13
COC(=O)c1c(C)oc2ccc(NS(=O)(=O)c3cc(OC)ccc3OC)cc12,11
C[C@H]1CN([C@@H](C)CO)C(=O)c2cc(NC(=O)c3ccncc3)ccc2O[C@@H]1CN(C)S(=O)(=O)c1ccc(Cl)cc1,-10
C[C@@H]1CN([C@@H](C)CO)C(=O)Cc2cc(NS(C)(=O)=O)ccc2O[C@@H]1CN(C)Cc1ccc(Oc2ccccc2)cc1,32

# As entered above.
# For NOMO-1 viab, `COC(=O)c1c(C)oc2ccc(NS(=O)(=O)c3cc(OC)ccc3OC)cc12` shows 11
# For NOMO-1 viab, `Cc1ccccc1-c1nc(S(=O)(=O)c2ccc(Cl)cc2)c(NCc2cccnc2)o1` shows -1
# For NOMO-1 viab, `C[C@@H]1CN([C@H](C)CO)C(=O)c2cc(NC(=O)CCN3CCOCC3)ccc2O[C@@H]1CN(C)C` shows -6
# For NOMO-1 viab, `Cc1noc(C)c1S(=O)(=O)Nc1ccc2c(c1)C(=O)N([C@@H](C)CO)C[C@@H](C)[C@H](CN(C)Cc1ccc3c(c1)OCO3)O2` shows -2

# (list continues)
SMILES,NOMO-1 viab
Cc1ccc(S(=O)(=O)Nc2ccc3c(c2)C(=O)N([C@H](C)CO)C[C@@H](C)[C@@H](CN(C)C(=O)Nc2ccc(F)cc2)O3)cc1,2
C[C@@H]1CN([C@H](C)CO)C(=O)c2cc(NC(=O)Nc3ccc4c(c3)OCO4)ccc2O[C@H]1CN(C)Cc1ccc(C(=O)O)cc1,30
Cn1c(SCC(=O)Nc2ccc(Cl)cc2Cl)nnc1-c1ccc(Br)cc1,6
CC(C)NC(=O)N(C)C[C@H]1Oc2ccc(NC(=O)NC3CCCCC3)cc2C(=O)N([C@H](C)CO)C[C@H]1C,-15
C[C@@H]1CN([C@H](C)CO)C(=O)Cc2cc(NC(=O)Cc3cn(C)c4ccccc34)ccc2O[C@@H]1CN(C)C(=O)Nc1ccc2c(c1)OCO2,8
Cc1noc(C)c1NC(=O)N(C)C[C@H]1Oc2ccc(NC(=O)Nc3ccc(C(F)(F)F)cc3)cc2CC(=O)N([C@H](C)CO)C[C@H]1C,11
C[C@H]1CN([C@@H](C)CO)C(=O)c2cccc(NS(=O)(=O)c3ccccc3)c2O[C@H]1CN(C)Cc1ccccc1,4

# Some of the compounds tested (hit frequency here may not be typical).
